Assay outcomes: PubChem, National Center for Advancing Translational Sciences (NCATS)
gsp antag: antagonizes gsp, the McCune-Albright syndrome mutation | Potency, µM (highest dose often 76.9 µM), for inactives: at the top dose activity change, negative = inhibition, hits mostly inhibitors | gsp-mutant cells, cAMP HTRF, 30 min; control for the full effect not named in the record | actives 0.4% (n = 340,000); active = falling curve of any shape with a large fitted effect; inconclusive = falling curve, mostly with a smaller effect; inactive = flat or rising curve; cell line not stated here;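 also: intracellular cAMP measured with PDE inhibitor Ro 20-1724 present during compound exposure; potency is read from the fitted curve at half-maximal effect; % is scaled to controls: 0 for no effect and ±100 for the full control effect; nearly all actives have a fitted effect of over 65% in size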
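G418-selected cells were plated in DMEM/10% FBS for 16-24 h at 37C, then treated with compounds plus the PDE inhibitor […] (300 uM solution added) for 30 min at 37C. Intracellular cAMP was measured by HTRF after 30 min lysis at room temperature.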
Menin MLL FP FL: menin-MLL binding inhibition, fluorescein peptide; Fluorescence polarization, fluorescein-MLL peptide displacement from menin; FP activity change, % at 61.4 µM; 290,000 tested, under 10 active; inconclusive = falling polarisation curve, or a change in total fluorescence; inactive = total fluorescence flat and polarisation flat or rising; no compound was filed as active; the % refers to the polarisation; negative = inhibition;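 also: % of control where 0% means no effect; inhibitors lower the polarisation; unlabelled MLL peptide was the positive control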
PINK1 expr mod: changes PINK1 expression. PINK1 immunofluorescence, high-content cytometry, 24 h. Potency, µM (highest dose often 76.6 µM), inactives show top-dose activation (PINK1 increase), hits mostly activators. actives 0.2% (n = 410,000). AID 624263; active = well fitted activation curve with a large enough effect; inconclusive = small, poorly fitted or top-dose-only effect; inactive = flat fitted curve, though single readings scatter; cell line not stated here;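 also: potency is read from the fitted curve at half-maximal effect; % of control where 0% means no effect; nearly all actives have a fitted effect of over 65% in size; a mitochondrial uncoupler was the plate control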
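Readout is PINK1 immunofluorescence, quantified alongside mitochondrial, cell and nuclear markers by laser-scanning microplate cytometry. Cells from a stable line were exposed to compound titrations (5 concentrations) for 24 hours, with CCCP controls.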
ClpP mod: qHTS Assay for Activators of ClpP; AID 651965, 2013; actives 1.9% (n = 340,000); Potency, µM (top dose mostly 57.5 µM), without a hit: at the highest dose activity change, negative = active; purified B. subtilis ClpP, FRET peptide cleavage, 20 min; ATP-dependent Clp protease proteolytic subunit (Bacillus subtilis (strain 168)), P80244; active = well fitted falling curve with a large enough effect; inconclusive = small, poorly fitted or top-dose-only effect; inactive = no such curve, though single readings can be large or run the other way; also: potency is read from the fitted curve at half-maximal effect; the source files actives as falling curves though it sought activators and does not explain the sign; nearly all actives have a fitted effect of over 65% in size; many hits overshoot -100%
Target sequence (P80244 whole entry, looked up): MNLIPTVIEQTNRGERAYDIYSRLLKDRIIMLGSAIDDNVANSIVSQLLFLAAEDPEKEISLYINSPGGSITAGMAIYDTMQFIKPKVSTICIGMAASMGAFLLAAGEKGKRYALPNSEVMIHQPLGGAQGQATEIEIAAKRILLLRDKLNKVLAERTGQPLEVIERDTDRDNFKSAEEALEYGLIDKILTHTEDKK
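Buffer: 100 mM Tris/HCl pH8, 100 mM KCl, 0.05% low protease BSA, 2.5% glycerol, 0.01% Tween-20. ClpP 10 microg/mL final; 20 min RT; delta FRET normalized to ADEP and DMSO controls.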
gsp agonist: activates gsp, the McCune-Albright syndrome mutation; AID 624287; Potency, µM (doses to about 76.9 µM), inactives show top-dose activation (cAMP increase), hits mostly activators; gsp mutant cells, cAMP HTRF, 30 min; control for the full effect not named in the record; actives 0.13% (n = 340,000); active = well fitted activation curve with a large enough effect; inconclusive = small, poorly fitted or top-dose-only effect, or another doubt; inactive = no such curve, though single readings can be large or run the other way; cell line not stated here;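 also: phosphodiesterase inhibitor Ro 20-1724 added with compounds to block cAMP breakdown; potency is read from the fitted curve at half-maximal effect; nearly all actives have a fitted effect of over 60% in size; about a fifth of the inactives were tested at one dose only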
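Cells in DMEM/10% FBS with G418 were pretreated with compounds in DMSO plus […] (300 uM stock) for 30 min at 37C. cAMP was measured by HTRF (cAMP-d2 plus anti-cAMP antibody-K) after 30 min at room temperature.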
Sfp PPTase inh: blocks B. subtilis Sfp PPTase activity; Q9F4F7; Biochemical Sfp PPTase activity, qHTS; Potency, µM, for the others: max response, negative = inhibition, hits mostly inhibitors; actives 3.5% (n = 310,000); AID 1490; active = well fitted inhibition curve with a large enough effect; inconclusive = small, poorly fitted or top-dose-only effect, or another doubt; inactive = no such curve, though single readings can be large or run the other way;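 also: the enzyme is Sfp with the accession as filed and its product quenches rhodamine fluorescence; potency is read from the fitted curve at half-maximal effect; 0% = enzyme reaction without inhibitor and -100% = no enzyme wells; top concentration of the series not given in the record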
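After 15 min at room temperature with compound, 15 nM Sfp received 5 uM rhodamine-CoA plus 12.5 uM BHQ-2-ybbR (50 mM Hepes pH 7.6, 10 mM MgCl2). Rate came from the fluorescence difference over 30 min, ex 525/em 598 nm.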
D2 ag: human D2 receptor agonism in beta-arrestin assay | DiscoveRx PathHunter D2 beta-arrestin, luminescence, 90 min; 100% = 57 uM dopamine signal | actives 0.084% (n = 360,000) | AID 624465 | activation, % (no concentration beside the values); in the data active = activation above about 40%; inconclusive = about 15% to 40%; inactive = below about 15%; also: compound concentration not given in the record; the text of the record calls up to 30% inactive
Target sequence (P14416 whole entry, looked up): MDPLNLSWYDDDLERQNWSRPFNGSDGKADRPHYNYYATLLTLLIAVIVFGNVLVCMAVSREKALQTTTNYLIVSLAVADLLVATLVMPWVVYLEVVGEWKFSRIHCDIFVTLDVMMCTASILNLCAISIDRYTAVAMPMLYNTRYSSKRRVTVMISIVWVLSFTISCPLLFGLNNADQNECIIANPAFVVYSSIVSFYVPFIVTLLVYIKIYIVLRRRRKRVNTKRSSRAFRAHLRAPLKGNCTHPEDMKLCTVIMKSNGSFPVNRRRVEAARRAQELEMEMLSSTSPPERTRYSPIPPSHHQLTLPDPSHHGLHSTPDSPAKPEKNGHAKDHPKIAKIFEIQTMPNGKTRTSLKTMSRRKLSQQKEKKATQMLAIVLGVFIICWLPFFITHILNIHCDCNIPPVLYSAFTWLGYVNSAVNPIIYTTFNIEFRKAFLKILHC
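DiscoveRx PathHunter D2 beta-arrestin cells (2,100/well) attached overnight, then compound-stimulated 90 min at 37 C in HBSS/10 mM HEPES/0.1% Tween-20 buffer; beta-galactosidase complementation read by luminescence after 1 h at ambient temperature. Dopamine 57 uM final (EC100) as control.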
Starred values were filed as active, the others as inactive; ? = inconclusive; . = not tested or not shown; & = joins results of further samples; [ ] = dose if it differs, or a comment. The order is random (roughly 5.1% active in at least one column).

SMILES | gsp antag | Menin MLL FP FL | PINK1 expr mod | ClpP mod | gsp agonist | Sfp PPTase inh | D2 ag
Fc1ccc2c(c1)C(c1cccnc1)=NNC(c1cccs1)=N2 | -8.8% | 1.4 | 5.9% | -1.2% | -22.9% | 9.1% | 3.3
Cc1cccc(CCNC(=O)C2CCC(=O)N(Cc3ccccc3F)C2)n1 (stereo unspecified) | 11.7% | . | -0.5% | -1.9% | -40.9%[inhibitor] | . | -0.9
O=c1c2ccccc2ncn1-c1ccccc1C(F)(F)F | 1.5% | -0.9 | -0.2% | 0.0% | -10.5% | 17.4% | -3.2
COC(=O)c1ccc(C2c3c(n[nH]c3C)C(=O)N2c2ccc(C)cc2)cc1 (stereo unspecified) | ? | 1.4 | 0.2% | 1.0% | -32.6%[inhibitor] | -10.3% | 1.2
Cc1c(C(=O)O)sc2nc(C)n(C)c(=O)c12 | 15.4% | 1.5 | . | 1.0% | 24.3% | 0.8% | -0.9
Cn1c(CNC(=O)CNC(=O)Cc2ccccc2)cc(=O)n(C)c1=O | 15.5% | -4.9 | 0.6% | 1.5% | 1.8% | 23.3% | -0.5
CN(C)C(=S)Nc1cccc(C(F)(F)F)c1 | -0.3% | ? | 2.3% | 0.8% | -5.7% | 13.1% | -3.9
Cc1nc2cc(Cl)ccc2n1CCO | -6.6% | 0.8 | -3.7%[38.3 µM] | 1.2% | 10.2% | 7.7% | 0.4
CN(C)C(CNC(=O)Nc1cccc(Cl)c1)c1cccnc1 (stereo unspecified) | -8.9% | -2.1 | -4.8% | 2.1% | -21.3% | 6.3% | -1.6
COc1ccc(-c2noc(C3CCCN(C(=O)c4cccc(C)c4)C3)n2)cc1 (stereo unspecified) | -26.2% | -1.1 | -0.8% | -0.5% | -49.2% | 14.9% | 2.6
Cc1cc(C(=O)Cn2cc(C(F)(F)F)ccc2=O)c(C)n1-c1ccccc1 | -1.7% | -5.9 | 0.7% | -16.6% | 27.3% | 5.1% | -3.0
Cc1ccc(S(=O)(=O)NC(=O)Nn2c(C)nnc2C)cc1 | 10.3% | 2.0 | -0.4% | 0.4% | ? | 11.0% | -2.9
CSc1ccccc1OCc1cc(C(=O)NC(C)c2cnn(C)c2)no1 (stereo unspecified) | 2.2% | . | 1.8% | 28.2µM* | -16.1% | 2.7% | -3.7
CC(=O)c1cccc(NC(=O)CSc2ccc(-c3sc(C)nc3C)nn2)c1 | ? | . | -0.3% | -0.6% | 9.1%[15.4 µM] | 21.5% | -2.4
Clc1ccc(C=Cc2ccccn2)cc1 | -7.8% | . | 4.9% | . | -14.3% | . | -4.3
CCOc1cccc(CN2CCC(N3CCC(C(=O)NCC4CCCO4)CC3)CC2)c1 (stereo unspecified) | 5.0% | . | 0.5% | -2.1% | 32.1% | 14.1% | -1.9
COc1cc2c(cc1OC)C(c1cc3ccccc3oc1=O)=NC(C)(C)C2 | 14.2% | 2.0 | 2.9% | 1.2% | -24.4% | ? | -0.7
CN(C)c1ccnc2sc(C(N)=O)c(N)c12 | -0.2% | 7.3 | -1.5%[38.3 µM] | -1.8% | 1.7% | 44.7µM* | 2.0
CCOC(=O)N/N=C/c1cc(OC)c(O)c(OC)c1 | 2.2% | . | -1.7% | -23.1% | -0.9% | -8.8% | 4.4
CCN(CC(=O)Nc1ccccc1C(F)(F)F)C(=O)c1oc2ccc(OC)cc2c1C | -15.1% | . | -2.5% | . | -4.9%[15.4 µM] | . | -1.7
CC(=O)Oc1ccc(/C=C2/CCc3ccccc3C2=O)cc1 | -9.3% | ? | 1.7% | 0.4% | -111.2%[inhibitor] | -7.6% | -2.4
CCN(CC)S(=O)(=O)c1cccc(NC(=O)COC(=O)/C=C/c2ccco2)c1 | 1.8% | 28.9 | 1.3% | 0.6% | ? | 28.2µM* | -7.5
COCCCn1c(SCC(=O)Nc2ccc(NC(=O)c3ccco3)c(OC)c2)nc2ccccc2c1=O | 10.9% | 2.1 | 5.0% | -4.3% | 5.7% | -1.2% | -1.4
CC(C)CCn1c(=O)c2sccc2n2c(CCCC(=O)N3CCN(c4ccccn4)CC3)nnc12 | -15.7% | . | 5.5% | -12.3% | ? | 16.9% | 5.0
Cc1cc(C(=O)N(C)CC(=O)Nc2cccc(F)c2)no1 | 3.0% | . | 2.2% | -1.4% | 7.1% | . | -4.6
O=C(CN1CCCc2ccccc21)NC(=O)NCc1ccccc1 | 2.2% | -0.6 | 0.8% | -0.4% | -56.8%[inhibitor] | 26.1% | -1.9
Cn1c2ccc(F)cc2c2nnc(SCC(=O)Nc3cccc(O)c3)nc21 | 1.1% | 4.9 | 5.1% | . | -30.4%[inhibitor] | 1.2% | 4.8
COc1ccccc1NC(=O)Cc1noc(CSc2cccc[n+]2[O-])n1 | 1.8% | 4.7 | 2.2% | 1.1% | 26.4% | 4.7% | -3.5
COc1ccc(OC)c(NC(=O)C2=C(C)Nc3ncnn3C2c2cccs2)c1 (stereo unspecified) | -6.2% | -2.3 | 1.1% | -3.3% | ? | 5.3% | 0.7
COc1cccc(NC(=O)Cn2c3ccccc3c3nc4n(c(=O)c32)CCS4)c1 | -48.5% | 5.7 | 6.2% | . | -5.1%[15.4 µM] | -10.0% | -4.7
COc1ccc(-c2csc(C(C)(NC(C)=O)c3ccc(OC)cc3)n2)cc1 (stereo unspecified) | . | . | 1.9% | 1.0% | . | . | -5.3
O=C(c1cccs1)N1C[C@@H](O)[C@H](n2cc(-c3ccc(F)cc3)nn2)C[C@@H]1c1ccccc1 | . | . | 1.0% | -1.2% | -35.5% | . | -10.6
Cc1nonc1CN(C)C(=O)CC1C(=O)NCCN1Cc1c(F)cccc1Cl (stereo unspecified) | 9.7% | 0.5 | 0.9% | . | 9.1%[15.4 µM] | ? | -3.2
O=C(CCc1c[nH]c2ccccc12)NCc1cccc(Cl)c1 | -4.1% | 1.0 | 0.6% | . | -11.5% | 12.4% | -3.2
O=C(OCC#CCSc1nnc(-c2cccc3ccccc23)o1)c1ccco1 | -17.5% | 5.3 | 2.9%[38.3 µM] | 28.2µM* | 1.5% | -5.8% | -0.7
COc1cccc(C2CC(C(F)(F)F)n3nc(C(=O)NCc4cccnc4)cc3N2)c1 (stereo unspecified) | 10.1% | 0.5 | -0.4%[38.3 µM] | 0.3% | -28.8% | 8.6% | 0.3
CCC1Oc2ccccc2N(CC(=O)NCc2cccs2)C1=O (stereo unspecified) | -8.2% | 2.7 | 3.4% | . | 5.9%[15.4 µM] | 10.5% | -2.1
CCc1nnc(NC(=O)Cc2cc(OC)c(OC)c(OC)c2)s1 | 10.1% | 0.0 | -0.2% | . | 1.9%[15.4 µM] | 4.7% | -2.9
CC[N+]1(CC)CC2CCC(C)(C1)C2(C)C (stereo unspecified) | 2.8% | 4.5 | -0.6% | -4.4% | -37.6%[inhibitor] | -4.0% | 8.3
CCCCOc1ccc(C(=O)N(Cc2ccco2)C2CCS(=O)(=O)C2)cc1 (stereo unspecified) | -8.5% | -1.7 | 1.9% | 1.0% | 5.0% | 12.2% | 7.9
CNc1nc(N/N=C/c2ccc([N+](=O)[O-])cc2)nc(Nc2ccccc2)n1 | 4.2% | -1.9 | -1.9% | 2.3% | -3.7% | 2.0% | -3.2
COC1=CC(=O)C=C(OC)C1=O | ? | ? | 0.0% | -0.4% | . | -80.4% | -3.9
c1cnn(-c2cc(N3CCOCC3)ncn2)c1 | 3.1% | 0.7 | -1.1% | -8.2% | ? | 14.1% | 1.9
CC(=O)N1c2ccc(S(=O)(=O)NCCC(=O)Nc3cccc(Cl)c3)cc2CC1C (stereo unspecified) | -5.8% | -3.0 | -1.5% | -3.3% | ? | -1.4% | 0.5
COc1ccccc1NC(=S)NCc1ccccc1 | 6.6% | 1.0 | -0.2% | . | ? | 11.2% | -0.2
O=C1C2CCCN2C(=S)N1c1cc(Cl)ccc1Cl (stereo unspecified) | -3.6% | . | ? | . | 3.3%[15.4 µM] | . | 6.4
COc1cccc(S(=O)(=O)NCc2ccc(C(=O)Nc3ccc(Cl)c(Cl)c3)cc2)c1 | -26.5% | -2.2 | 8.9% | ? | 10.7% | 1.7% | 0.5
COc1ccc(CNC(=O)C2CCN(S(=O)(=O)c3ccc4c(c3)C(C)(C)C(=O)N4C)CC2)cc1 | -20.7% | 4.9 | -0.4% | -2.2% | -44.7%[inhibitor] | 3.0% | -3.0
Clc1cncc(Cl)c1N/N=C/c1ccncc1 | 0.5% | 1.7 | -3.7% | -2.5% | -31.5%[inhibitor] | 14.4% | 0.6
CN(C)/C=C/C(=O)/C=C/c1cn(-c2ncc(C(F)(F)F)cc2Cl)c2ccccc12 | -2.9% | 4.7 | 15.3% | -2.5% | 22.6% | -2.5% | -3.8
COC(=O)c1ccccc1COc1cccn2c(N(C)CC3CC3)c(C)nc12 | . | . | ? | -2.6% | . | . | -4.0
C=CC1CN(CC(=O)OC)S(=O)(=O)c2ccccc21 (stereo unspecified) | 12.0% | 2.4&2.0 | 0.6% | 0.2% | . | 5.7%&-3.5% | -1.9
O=c1[nH]nc(Br)c(=O)n1C(c1ccccc1)c1ccccc1 | -3.7% | . | -0.5% | -0.5% | -1.5% | . | 0.6
Cc1cc(Br)ccc1NC(=O)c1sc2ncn(CC(=O)N3CCN(c4ccccn4)CC3)c(=O)c2c1C | ? | 1.8 | -1.1% | 3.8% | ? | 6.6% | 0.6
CC1CN(C(=O)C(C)N2C(=O)c3ccccc3C2=O)CC(C)O1 (stereo unspecified) | 6.7% | -2.3 | -0.2%[38.3 µM] | 0.0% | -26.9% | 15.2% | -2.0
C/C(=N\NC(=O)CSc1nc2ccccc2[nH]1)c1ccncc1 | . | -5.2 | -1.1% | . | 5.8%[15.4 µM] | -8.8% | -0.3
Cc1cc(C)c2c(n1)SCC(=O)N2CC(=O)Nc1ccccc1Cl | 1.2% | 0.1 | -1.9% | 2.3% | -12.7% | 5.7% | -1.5
